Bioassay records from PubChem BioAssay.
TAR Tat displ – TAR RNA-Tat peptide displacers, HIV-1, primary screen, biochemical, FRET, FAM/TAMRA-labeled Tat; HIV-1 TAR RNA, Tat peptide displacement FRET; hits give high values; z-score (no concentration beside the values); 100,000 tested, 0.6% active; AID 1259389, 2018;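 note: score is relative to mean and SD of negative controls; some compounds called inactive have numbers as strong as hits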
CDC25B-CDK2 inh – primary biochemical HTRF screen for blockers of M-phase inducer phosphatase 2 binding to CDK2/cyclin A; 94,000 tested, 0.72% active; AID 1259370, 2018; z-score (test concentration not listed); HTRF CDC25B-CDK2/CyclinA binding, anti-His/anti-Flag; hits give high values; P30305+P24941;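 note: score is relative to mean and SD of negative controls; strong numbers were not always called active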
* hit, by the source's call.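 Rule for the calls: active = z-score from 3 up in half or more of its runs; inactive = the rest.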 Random draw from the library; any-hit rate near 0.97%.

How did COc1cc2c(cc1OC)C1C(C(=O)NC3CC3)c3ccccc3C(=O)N1CC2 (stereo not drawn) do in these assays?
CDC25B-CDK2 inh: -0.27

What do the screens show for `Cc1ccc2cc3c(nc2c1)N(C(=O)CC(C)C)CC3`?
TAR Tat displ: -0.05; CDC25B-CDK2 inh: -1

What do the screens show for `CCCc1c(C)nc2ncnn2c1Nc1cccc(Cl)c1`?
TAR Tat displ: 1.1; CDC25B-CDK2 inh: -2

How did CCOC(=O)c1c(NC(=O)N2CCC(CN3CCOCC3)CC2)sc2c1CCCC2 do in these assays?
TAR Tat displ: 1.6

How did COCCNc1nc2c(S(=O)(=O)c3ccc(C)c(C)c3)nnn2c2ccc(Cl)cc12 do in these assays?
TAR Tat displ: 0.48; CDC25B-CDK2 inh: 0.69

Results for Cc1ccc(N2C(=O)c3n[nH]c(C)c3C2c2cccs2)cc1 (stereo not drawn) ?
CDC25B-CDK2 inh: -0.96

How did Brc1cccc(-c2nnc(CN3CCN(C4CCCCC4)CC3)o2)c1 do in these assays?
TAR Tat displ: 1.9; CDC25B-CDK2 inh: -1.6

Results for CCc1nn(CC(=O)O)c(=O)c2cc3sccc3n12 ?
TAR Tat displ: 0.45; CDC25B-CDK2 inh: -1.4

Results for COc1ccc(OC(=O)CSc2nnc(-c3cccs3)o2)cc1 ?
TAR Tat displ: -0.79; CDC25B-CDK2 inh: -1.7

Results for COC(=O)c1cn(Cc2cc(OC)ccc2OC)cc(F)c1=O ?
CDC25B-CDK2 inh: -1.6

How did O=C(c1cc(-c2ccc3c(c2)OCCO3)on1)N(Cc1ccc(F)cc1)Cc1ccco1 do in these assays?
TAR Tat displ: -0.63; CDC25B-CDK2 inh: 2

Results for CCOC(=O)C1CCN(S(=O)(=O)c2cc3[nH]c4c(c3cc2C)C(=O)CCC4)CC1 ?
TAR Tat displ: 1.6

What do the screens show for `COc1cc(C2SCc3cc(C)c(C)cc3CS2)ccc1O`?
CDC25B-CDK2 inh: -1.1

Results for Cn1c(C(=O)N2CCN(c3ccccn3)CC2)cc2cc(S(=O)(=O)N3CCCCC3)ccc21 ?
TAR Tat displ: 1.2

What do the screens show for `CCOC(=O)C1CCN(C2=NC(=O)/C(=C\c3cc(OC)ccc3OC)S2)CC1`?
CDC25B-CDK2 inh: -3.2

Results for O=C(Cc1ccccc1)c1cc2c(cc1Br)OCCO2 ?
CDC25B-CDK2 inh: -2.3

Results for CSC(NC(C(=O)O)c1ccccc1)=C(C#N)C#N (stereo not drawn) ?
CDC25B-CDK2 inh: 0.02

How did Cc1ccc(C)n1CCNc1ccc(C(F)(F)F)cc1[N+](=O)[O-] do in these assays?
CDC25B-CDK2 inh: -3

Results for O=[N+]([O-])c1cc(C(F)(F)F)ccc1-n1ccc(-c2cccs2)n1 ?
CDC25B-CDK2 inh: 0.41

How did CCOC(=O)N1c2ccccc2C(C)(c2ccccc2)CC1(C)C (stereo not drawn) do in these assays?
TAR Tat displ: -0.88; CDC25B-CDK2 inh: -1.1

What do the screens show for `COC(=O)C1=C(OC(=O)c2ccc(Cl)cc2)c2ccccc2S(=O)(=O)N1C(C)C`?
TAR Tat displ: -1; CDC25B-CDK2 inh: -0.3

Results for Cc1cc(O)c(C(c2ccc(Cl)cc2)c2c(O)cc(C)oc2=O)c(=O)o1 ?
CDC25B-CDK2 inh: -0.87

What do the screens show for `N#C/C(=C\c1ccc[nH]1)C(=O)Nc1ccc(F)c(F)c1F`?
CDC25B-CDK2 inh: 0.12

What do the screens show for `CCCC(=O)NC(c1cccs1)c1cc(Cl)c2cccnc2c1O` (stereo not drawn)?
CDC25B-CDK2 inh: -0.57

Results for CC1(C)Cc2c(C#N)c(NCCN)nc(Cc3ccccc3)c2CO1 ?
TAR Tat displ: -1.2; CDC25B-CDK2 inh: -1.8

What do the screens show for `Cc1nn2cnnc2c(C)c1CCC(=O)N1CCN(C)CC1`?
TAR Tat displ: -0.77

What do the screens show for `c1ccc(C(c2cccs2)c2c[nH]c3ccccc23)cc1` (stereo not drawn)?
TAR Tat displ: 1.6

Results for O=C(CC(NS(=O)(=O)c1ccc(Cl)cc1)c1ccco1)N1CCc2ccccc21 (stereo not drawn) ?
CDC25B-CDK2 inh: -1.1

What do the screens show for `CN(C)c1ccc(C2C3C(=O)N(Cc4ccccc4)C(=O)C3ON2c2ccccc2)cc1` (stereo not drawn)?
TAR Tat displ: 2.9; CDC25B-CDK2 inh: -1.8

Results for CN1C(=O)C(O)(CC(=O)c2cc(O)ccc2O)c2ccccc21 (stereo not drawn) ?
TAR Tat displ: 0.74; CDC25B-CDK2 inh: -0.22

What do the screens show for `Cc1oc(C(=O)NNC(=O)Nc2cccc(C(F)(F)F)c2)nc1-c1ccccc1`?
CDC25B-CDK2 inh: -1.7

Results for COc1ccc(S(=O)(=O)NCCc2sc(C)nc2C)cc1F ?
TAR Tat displ: 0.99

What do the screens show for `Cc1ccc(CC2CC(=O)N(c3nc4ccccc4n3C)C2=O)cc1` (stereo not drawn)?
TAR Tat displ: 1.3; CDC25B-CDK2 inh: 0.87

How did COc1ccc(-c2nc3c(c(=O)[nH]2)Cc2cc(Cl)ccc2O3)cc1O do in these assays?
TAR Tat displ: 1.6; CDC25B-CDK2 inh: -1.2

How did O=C(COc1ccccc1)Nc1ccc(OCc2cc(=O)n3ccccc3n2)cc1 do in these assays?
TAR Tat displ: -0.91

Results for Oc1ccccc1OCCOc1ccccc1O ?
TAR Tat displ: -0.81; CDC25B-CDK2 inh: -1.4

What do the screens show for `CN(C)S(=O)(=O)N=C1C=CC(=NS(=O)(=O)N(C)C)C=C1`?
CDC25B-CDK2 inh: -0.03

How did CN(CC(=O)NCc1ccc2c(c1)OCO2)S(=O)(=O)c1cccc2nsnc12 do in these assays?
TAR Tat displ: 0.5; CDC25B-CDK2 inh: -1.4

Results for COc1ccc(OCCNC(=O)c2ccco2)cc1 ?
CDC25B-CDK2 inh: -0.99

What do the screens show for `Cc1ccc(O)c(C2=NN3C(C2)c2ccccc2OC3c2ccncc2)c1` (stereo not drawn)?
TAR Tat displ: -0.18; CDC25B-CDK2 inh: 0.4

Results for CCc1ccc(C2C(C(=O)OC)=C(C)NC3=C2C(=O)CC(C)(C)C3)s1 (stereo not drawn) ?
TAR Tat displ: 2.5; CDC25B-CDK2 inh: -2.1

Results for COc1cccc2cc(C(=O)CC3(O)C(=O)Nc4ccc(Cl)cc43)oc12 (stereo not drawn) ?
TAR Tat displ: 0.65

What do the screens show for `O=C(NO)C1CCC(CN(Cc2ccc(Cl)cc2)S(=O)(=O)c2ccc3c(c2)OCCO3)CC1` (stereo not drawn)?
TAR Tat displ: 0.81

What do the screens show for `Cc1ccc(N2CCN(c3nc4ccccc4n4nnnc34)CC2)c(C)c1`?
TAR Tat displ: -0.56; CDC25B-CDK2 inh: -0.96

What do the screens show for `COc1cc(/C=N\NC(=O)C2COc3cc4ccccc4cc3O2)cc(OC)c1OC` (stereo not drawn)?
CDC25B-CDK2 inh: -0.98

What do the screens show for `NS(=O)(=O)c1ccc(N2N=C(c3ccccc3)CC2c2ccccc2)cc1` (stereo not drawn)?
TAR Tat displ: 0.18; CDC25B-CDK2 inh: -0.55

What do the screens show for `COc1ccc(NC(=O)CSc2nc(-c3cccs3)nc3c2c(=O)n(C)c(=O)n3C)c(OC)c1`?
CDC25B-CDK2 inh: -1.4

Results for O=C(C1=C(O)C(=O)N(CCCn2ccnc2)C1c1cccnc1)c1cccs1 (stereo not drawn) ?
TAR Tat displ: -0.63; CDC25B-CDK2 inh: 0.41

What do the screens show for `COc1ccccc1N=C(N)SCc1ccccc1`?
CDC25B-CDK2 inh: -0.38

What do the screens show for `CCCCNC(=O)C1CCN(C(=O)N2CC(C)Oc3ccc(Cl)cc32)CC1` (stereo not drawn)?
TAR Tat displ: 2.4

How did O=C(Nc1nnc(C2CCCC2)s1)C(=O)c1c[nH]c2ccccc12 do in these assays?
TAR Tat displ: 1.4; CDC25B-CDK2 inh: -1.6

Results for c1cc2c(cc1-c1nnc(CN3CCCC3)o1)OCO2 ?
TAR Tat displ: 0.85; CDC25B-CDK2 inh: -2.4

Results for COc1ccccc1Cn1cc(C(=O)c2ccccc2)c(=O)c2cc(OC)c(OC)cc21 ?
TAR Tat displ: 1.6; CDC25B-CDK2 inh: -1.7

What do the screens show for `NC(=O)c1ccc(Nc2ncnc3nc[nH]c23)cc1`?
TAR Tat displ: 1; CDC25B-CDK2 inh: -1.1

How did O=C(CSc1nc2[nH]ncc2c(=O)n1-c1ccc(Cl)cc1)Nc1ccc(Cl)cc1 do in these assays?
CDC25B-CDK2 inh: -1.6

How did CCCC(=O)Nc1nc2cc(NS(C)(=O)=O)ccc2s1 do in these assays?
TAR Tat displ: 1.6

How did COc1ccc(-c2cc(=O)c3ccccc3s2)cc1 do in these assays?
TAR Tat displ: -0.76; CDC25B-CDK2 inh: 0.24

What do the screens show for `C=CCn1c(=O)[nH]c2nc3cc(NC(=O)CCCCCC)c(C)cc3nc2c1=O`?
TAR Tat displ: -2.1; CDC25B-CDK2 inh: -1.1

What do the screens show for `CCOC(=O)N1CCN(C(=O)C2CC(c3cc(OC)ccc3OC)=NO2)CC1` (stereo not drawn)?
TAR Tat displ: -1.3; CDC25B-CDK2 inh: -1.6

What do the screens show for `Cc1ccc(-n2nnc(S(=O)(=O)c3ccc(Cl)cc3)c2C)cc1F`?
TAR Tat displ: 0.93; CDC25B-CDK2 inh: -0.37

Of the compounds above, 7 have two or more sulfur atoms.
Results for COc1ccc(OC(=O)CSc2nnc(-c3cccs3)o2)cc1 ?
TAR Tat displ: -0.79; CDC25B-CDK2 inh: -1.7

What do the screens show for `COc1cc(C2SCc3cc(C)c(C)cc3CS2)ccc1O`?
CDC25B-CDK2 inh: -1.1

Results for COc1ccc(S(=O)(=O)NCCc2sc(C)nc2C)cc1F ?
TAR Tat displ: 0.99

What do the screens show for `CN(C)S(=O)(=O)N=C1C=CC(=NS(=O)(=O)N(C)C)C=C1`?
CDC25B-CDK2 inh: -0.03

How did CN(CC(=O)NCc1ccc2c(c1)OCO2)S(=O)(=O)c1cccc2nsnc12 do in these assays?
TAR Tat displ: 0.5; CDC25B-CDK2 inh: -1.4

What do the screens show for `COc1ccc(NC(=O)CSc2nc(-c3cccs3)nc3c2c(=O)n(C)c(=O)n3C)c(OC)c1`?
CDC25B-CDK2 inh: -1.4

How did CCCC(=O)Nc1nc2cc(NS(C)(=O)=O)ccc2s1 do in these assays?
TAR Tat displ: 1.6

Further compounds:
What do the screens show for `CCCN1CCN(c2nc3ncc([N+](=O)[O-])cc3o2)CC1`?
TAR Tat displ: 0.08; CDC25B-CDK2 inh: 3.9

Results for Cc1noc2ncnc(N(C)C3CCCCC3)c12 ?
TAR Tat displ: -1.8

How did O=c1cnnc(NCc2ccco2)[nH]1 do in these assays?
TAR Tat displ: 0.12; CDC25B-CDK2 inh: -0.5

What do the screens show for `C=CCNC(=O)CSc1nnc2c3ccccc3nc(-c3ccccc3)n12`?
TAR Tat displ: 0.99

Results for Cc1ccccc1Cn1cccc1CNC(=O)NCC1CCCO1 (stereo not drawn) ?
TAR Tat displ: 1.4

How did O=C(NCC(c1cccs1)N1CCCCC1)c1cc(-c2cccs2)on1 (stereo not drawn) do in these assays?
TAR Tat displ: -0.61; CDC25B-CDK2 inh: -1.9

What do the screens show for `CCCCCSc1nc2n(n1)C(c1ccc(OC)cc1)C(C(=O)OCC)=C(C)N2` (stereo not drawn)?
TAR Tat displ: 0.76; CDC25B-CDK2 inh: -1.2

How did CC(=O)N1CCc2cc(S(=O)(=O)CCC(=O)N(C)c3ccc(Br)cc3)ccc21 do in these assays?
TAR Tat displ: -0.01

Results for CC(C)CNc1oc(/C=C/c2cccs2)nc1C#N ?
TAR Tat displ: -0.11; CDC25B-CDK2 inh: -1.9

What do the screens show for `O=C(Nc1nc2nc3c(c(=O)n2[nH]1)CCC3)c1cccs1`?
TAR Tat displ: 2; CDC25B-CDK2 inh: -1.8

Results for Cc1ccc(-c2nnn3c2nc(NC(C)C)c2ccccc23)cc1 ?
TAR Tat displ: 12; CDC25B-CDK2 inh: -0.54

How did CN(C)CCCN(C(=O)COc1ccccc1)c1nc2cc3c(cc2s1)OCCO3 do in these assays?
TAR Tat displ: 0.85

How did O=C1c2ccccc2-c2onc3c(N4CCCC4)cc(NCCN4CCCC4)c1c23 do in these assays?
TAR Tat displ: 0.18; CDC25B-CDK2 inh: -0.55

What do the screens show for `CC1Cc2ccccc2N1C(=O)CN(C)S(=O)(=O)c1ccc(C(=O)N2CCOCC2)s1` (stereo not drawn)?
TAR Tat displ: 1

Results for Clc1ccc(CN2COc3cc4c(cc3C2)OCO4)cc1 ?
CDC25B-CDK2 inh: -1.9

A run of entries of the results above, for reference:
Results for Cc1ccccc1Cn1cccc1CNC(=O)NCC1CCCO1 (stereo not drawn) ?
TAR Tat displ: 1.4

How did O=C(NCC(c1cccs1)N1CCCCC1)c1cc(-c2cccs2)on1 (stereo not drawn) do in these assays?
TAR Tat displ: -0.61; CDC25B-CDK2 inh: -1.9

What do the screens show for `CCCCCSc1nc2n(n1)C(c1ccc(OC)cc1)C(C(=O)OCC)=C(C)N2` (stereo not drawn)?
TAR Tat displ: 0.76; CDC25B-CDK2 inh: -1.2

Next part:
What do the screens show for `Cc1ccnc(NC(c2ccccc2F)c2ccc3cccnc3c2O)c1` (stereo not drawn)?
TAR Tat displ: -0.1; CDC25B-CDK2 inh: -3.3

What do the screens show for `COc1ccc2ncc(C(=O)c3ccccc3)c(S(=O)(=O)c3ccc(F)cc3)c2c1`?
TAR Tat displ: 0.27; CDC25B-CDK2 inh: 1.2

What do the screens show for `O=C(Cn1nnc2sc3c(c2c1=O)CCCC3)NCc1ccco1`?
TAR Tat displ: -0.05; CDC25B-CDK2 inh: -0.78

What do the screens show for `CC1CCCC(NC(=O)CCCn2ncn3c(cc4occc43)c2=O)C1C` (stereo not drawn)?
TAR Tat displ: -0.53; CDC25B-CDK2 inh: 0.02
